Source: PubChem BioAssay (National Center for Advancing Translational Sciences (NCATS))
gsp antagonist = qHTS for Antagonists of gsp, the Etiologic Mutation Responsible for Fibrous Dysplasia/McCune-Albright Syndrome: qHTS; gsp-mutant cells, cAMP HTRF, 30 min; control for the full effect not named in the record; Potency, µM (doses to about 76.9 µM), inactives show at the highest dose activity change, negative = inhibition, most hits filed as inhibitors; hit rate 0.4% among 340,000; active = falling curve of any shape with a large fitted effect; inconclusive = falling curve, mostly with a smaller effect; inactive = flat or rising curve; cell line not stated here;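 also: intracellular cAMP measured with PDE inhibitor Ro 20-1724 present during compound exposure; potency is read from the fitted curve at half-maximal effect; % is scaled to controls: 0 for no effect and ±100 for the full control effect; nearly all actives have a fitted effect of over 65% in size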
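HTRF cAMP read-out (cAMP-d2 plus anti-cAMP antibody-K in lysis buffer, 30 min RT). Before lysis, cells are exposed to compounds with […] for 30 min at 37C in DPBS containing Ca/Mg, BSA and Tween 20.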
Menin-MLL FL inh = qHTS Assay for Inhibitors Targeting the Menin-MLL Interaction in MLL Related Leukemias: Competition With Fluorescein Labeled MLL-derived Peptide | 290,000 tested, under 10 active | Fluorescence polarization, fluorescein-MLL peptide displacement from menin | FP activity change, % at 61.4 µM | AID 1766, 2009; inconclusive = falling polarisation curve, or a change in total fluorescence; inactive = total fluorescence flat and polarisation flat or rising; no compound was filed as active; the % refers to the polarisation; negative = inhibition;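 also: % of control where 0% means no effect; inhibitors lower the polarisation; unlabelled MLL peptide was the positive control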
TRPML1 inh = qHTS for Inhibitors of the Human Mucolipin Transient Receptor Potential 1 (TRPML1); activity change, negative = inhibition, % (concentration not given with the values); hit rate 0.02% among 390,000; AID 624415, 2012; TRPML1-inducible cells, Ca2+ dye fluorescence, FDSS; active compounds read low; inhibition of EC80 agonist-evoked calcium signal; in the data active means activity change below about -50%; inconclusive means about -30% to -50%; inactive means above about -30%;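 also: stimulus is agonist 54-4 at its EC80 concentration; % is scaled to controls: 0 for no effect and ±100 for the full control effect; the text of the record puts the active cut at -80%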
Target sequence (Q9GZU1 whole entry, looked up): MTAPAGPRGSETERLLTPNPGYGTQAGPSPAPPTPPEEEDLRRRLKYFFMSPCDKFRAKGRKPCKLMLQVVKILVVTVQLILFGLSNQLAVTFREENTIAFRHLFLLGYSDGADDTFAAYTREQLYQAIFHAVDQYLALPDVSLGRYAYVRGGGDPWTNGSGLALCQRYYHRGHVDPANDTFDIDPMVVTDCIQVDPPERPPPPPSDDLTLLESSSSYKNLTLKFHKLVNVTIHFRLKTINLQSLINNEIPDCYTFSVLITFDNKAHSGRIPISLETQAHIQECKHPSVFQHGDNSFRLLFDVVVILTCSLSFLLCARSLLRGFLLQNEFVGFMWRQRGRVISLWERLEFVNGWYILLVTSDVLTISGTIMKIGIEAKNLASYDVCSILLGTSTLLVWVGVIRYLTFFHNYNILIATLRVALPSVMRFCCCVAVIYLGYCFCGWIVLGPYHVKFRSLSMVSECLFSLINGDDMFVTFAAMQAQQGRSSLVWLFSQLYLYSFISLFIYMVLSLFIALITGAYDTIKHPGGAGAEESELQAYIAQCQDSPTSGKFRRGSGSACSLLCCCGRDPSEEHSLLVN
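TRPML1-DL cells, Tet-induced overnight (~16 h, 37 °C) at 1,500 cells/well, were loaded with Ca8 no-wash dye plus quencher for 45-90 min at room temperature. Compounds were pinned during FDSS kinetic reading; agonist 54-4 at EC80 (4 uM final) then added.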
ClpP mod = qHTS Assay for Activators of ClpP | purified B. subtilis ClpP, FRET peptide cleavage, 20 min | Potency, µM (highest dose often 57.5 µM), for the others: top-dose activity change, negative = active | hit rate 1.9% among 340,000 | AID 651965, 2013; active = well fitted falling curve with a large enough effect; inconclusive = small, poorly fitted or top-dose-only effect; inactive = no such curve, though single readings can be large or run the other way; also: potency is read from the fitted curve at half-maximal effect; the source files actives as falling curves though it sought activators and does not explain the sign; nearly all actives have a fitted effect of over 65% in size; many hits overshoot -100%
Target sequence (P80244 whole entry, looked up): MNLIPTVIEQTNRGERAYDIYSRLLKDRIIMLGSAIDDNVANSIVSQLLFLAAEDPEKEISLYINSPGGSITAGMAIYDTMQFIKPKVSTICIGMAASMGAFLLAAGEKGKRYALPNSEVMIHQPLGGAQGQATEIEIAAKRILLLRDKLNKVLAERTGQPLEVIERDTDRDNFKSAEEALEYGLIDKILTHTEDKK
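Purified B. subtilis ClpP, 10 microg/mL final in Tris/HCl pH8 with KCl, BSA, glycerol and Tween-20, cleaved an Abz/nitrotyrosine-quenched decapeptide. Fluorescence (ex 320, em 430) was read at 0 and 20 min at room temperature. Delta was normalized to 5.8 microM ADEP and DMSO/no-enzyme controls.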
gsp agonist = qHTS for Agonist of gsp, the Etiologic Mutation Responsible for Fibrous Dysplasia/McCune-Albright Syndrome: qHTS; gsp mutant cells, cAMP HTRF, 30 min; control for the full effect not named in the record; Potency, µM (doses to about 76.9 µM), for inactives: at the highest dose activation (cAMP increase), most hits filed as activators; hit rate 0.13% among 340,000; active = well fitted activation curve with a large enough effect; inconclusive = small, poorly fitted or top-dose-only effect, or another doubt; inactive = no such curve, though single readings can be large or run the other way; cell line not stated here;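 also: phosphodiesterase inhibitor Ro 20-1724 added with compounds to block cAMP breakdown; potency is read from the fitted curve at half-maximal effect; nearly all actives have a fitted effect of over 60% in size; about a fifth of the inactives were tested at one dose only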
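Cells stably selected in G418 were plated at 2000/well, grown 16-24 hr, then given compounds in DMSO with the PDE inhibitor […] (300 uM solution added) for 30 min at 37C; cAMP was read by HTRF.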
TRPML1 ag = qHTS for Agonists of the Human Mucolipin Transient Receptor Potential 1 (TRPML1); TRPML1-expressing cells, Ca2+ dye fluorescence, FDSS; host cell line not named in the record; reference of the full effect not given here; activation, % (no concentration beside the values); Mucolipin-1 (Homo sapiens), Q9GZU1; hit rate 0.12% among 410,000; in the data active = activation above about 50%; inconclusive = about 30% to 50%; inactive = below about 30%; also: 0% is about no effect; the text of the record puts the active cut at 80%
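In this qHTS format, compounds were pin-transferred onto Ca8-dye-loaded TRPML1-DL cells induced with Tet overnight, and intracellular Ca2+ fluorescence was recorded kinetically for 110 s after a 10 s baseline. A subsequent 4uM final 54-4 (EC80) addition followed by a second 110 s read served as the antagonist phase.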
Numbers without * were called inactive; u = inconclusive; x = not tested or not shown; [ ] = another dose, or the depositor's remark.

SMILES	gsp antagonist	Menin-MLL FL inh	TRPML1 inh	ClpP mod	gsp agonist	TRPML1 ag
COc1ccc(-c2cc(C(F)(F)F)nc(NCc3cccnc3)n2)cc1	-14.5%	1.5	-3.7	-29.0%	6.5%	-0.6
O=C(CSc1nccc(=O)[nH]1)Nc1ccc(Br)c(Cl)c1	-5.7%	4.9	-8.4	-22.5%	-71.7%[inhibitor]	0.1
CCn1c(C)nc2cc(C(=O)N/N=C/c3ccc(OC)c(O)c3)ccc21	u	4.9	0.0	-11.6%	-27.4%	-0.1
Cc1ccc2nc(NC(=O)CCn3c(=O)sc4ccccc43)sc2c1	-20.6%	4.1	-2.0	-1.4%	-28.5%	1.2
CCCCn1c(SCC(N)=O)nc2c(sc3ccccc32)c1=O	-5.8%	4.8	10.8	u	8.6%	0.7
CSc1ccc(Cn2nnc(C(=O)NCCc3ccc(Cl)cc3)c2N)cc1	9.1%	2.0	-4.4	-1.1%	5.9%	2.6
O=C(c1ccc(O)c(Br)c1)c1cc(Br)ccc1O	-12.1%	x	2.6	x	-10.5%	1.0
CC(C)COC(=O)/C(C#N)=C/c1c[nH]c2ccccc12	0.3%	u	-2.6	-6.6%	u	1.7
O=C(CN1CCN(S(=O)(=O)c2ccc(F)cc2)CC1)Nc1cccc(C(F)(F)F)c1	-19.3%	3.3	-1.3	28.2µM*	-50.3%[inhibitor]	0.0
Cc1csc2c(N3CCN(C(=S)Nc4ccc(C(F)(F)F)cc4)CC3)ncnc12	u	5.6	0.8	-4.2%	u	0.5
Cc1cccc(C)c1NC(=O)C(c1ccc([N+](=O)[O-])cc1)N1CCCCC1 (configuration not stated)	-26.7%	2.1	-11.3	0.0%	18.8%	2.6
CC1CCN(C(=O)Cn2nnnc2CN2CCOCC2)CC1	-5.3%	x	-0.3	-1.5%	-1.0%	0.5
O=C(C[n+]1ccc(C(=O)NCCCO)cc1)c1cccc(Br)c1	-12.2%	0.9	5.1	-0.1%	-15.3%[15.4 µM]	-0.3
O=C(Nc1ccccc1N1CCN(c2ccccc2)CC1)c1ccccc1	x	1.3	13.8	x	-0.3%[15.4 µM]	0.8
CC(C)OCCCNC(=O)CCCN1C(=O)CCn2nc(-c3cccn3C)cc21	x	x	19.0	-2.2%	x	1.6
COc1ccc(CNC(=O)C2CCN(C(=O)N(C)C)CC2)c(OC)c1	10.2%	-0.9	-3.4	-0.1%	19.2%	0.3
COC(=O)c1sc(NC(=O)COc2ccc(OC)cc2)nc1C	10.1%	x	-8.2	1.1%	0.0%	-1.7
O=c1c2ccccc2c2c(O)nc(-c3ccccc3)n2n1Cc1ccccc1	12.2%	0.2	37.5	-1.3%	-25.3%	-0.4
CCOc1ccccc1C(=O)NCC(=O)NNC(=O)c1cccs1	8.8%	x	25.6	-2.6%	6.2%	0.0
CCSc1nc2ccc(N3C(=O)C4C5C=CC(C5)C4C3=O)cc2s1 (configuration not stated)	-17.4%	1.3	-1.6	2.9%	-13.6%	1.1
COc1ccccc1NC(=O)CN1CCN(CC(=O)Nc2cc(NC(C)=O)ccc2OC)CC1	-3.5%	-2.4	5.8	3.6%	-51.3%	1.3
CCOc1ccccc1OCC(=O)Nc1nnc(COC)s1	-15.5%	4.6	16.9	-3.7%	-2.5%	-0.7
Cc1ccc(NS(=O)(=O)c2ccc(NC(=O)c3cccs3)cc2)cc1	1.6%	3.5	6.5	-1.4%	0.0%	0.0
CC(C)[C@H](NC(=O)C1CCN(S(=O)(=O)c2ccccc2)CC1)C(=O)NCc1ccco1	10.2%	x	-7.3	0.3%	u	-0.9
Cc1cccc(OCCn2c(-c3ccc(Cl)cc3)nc3ccccc3c2=O)c1C	x	x	-1.3	-1.2%	x	-0.8
CCOC(=O)[C@H]1[C@H]2COc3ccc(OC)cc3[C@@H]2N2C(=O)c3ccccc3NC(=O)[C@@]12C	0.8%	x	-12.7	-2.4%	0.9%	-0.4
Cc1ccc(Oc2ccc(Cl)cc2NC(=O)c2ccc(F)cc2F)cc1	4.6%	-22.6	-8.7	u	-18.7%	2.8
COc1ccc2oc(=N)c(C(=O)Nc3ccc(Br)cc3)cc2c1	6.9%	6.7	x	2.9%	u	x
Cc1cccc(OC(C)C(=O)N2CCCN(C)CC2)c1C (configuration not stated)	10.5%	x	-12.0	-0.2%	-5.4%	0.8
Cc1c(Cl)cccc1NC(=O)c1ccc2c(c1)CCCN2S(C)(=O)=O	x	x	4.4	-0.5%	x	-0.3
CCN(C(=O)CSc1nc2ccccc2n1CC(=O)Nc1ccc(F)cc1F)c1ccccc1	x	x	10.2	-1.3%	x	-0.8
CCC(=O)N1CCCN(S(=O)(=O)c2ccc(C)cc2)C1c1ccc(OC)cc1 (configuration not stated)	-5.3%	x	22.7	x	17.8%	2.5
Cc1cccc(-c2nsc(SCC(=O)Nc3ccc4c(c3)OCO4)n2)c1	u	4.8	-12.0	1.0%	3.3%	0.5
Cc1nn(-c2ccccc2)c2sc(C(=O)N3CCCCC3)cc12	11.5%	-2.8	8.4	-3.7%	8.9%	0.8
COc1ccc(NC(=O)c2cccnc2N2CCCC2)cc1	10.9%	2.6	-9.9	0.7%	-0.9%	0.1
Cc1ccccc1Nc1nc(N)nc(CSc2nncn2C)n1	-25.3%	-3.9	8.7	x	5.5%[15.4 µM]	-1.0
Cc1ccc(-n2c(N)c(Br)c(=O)[nH]c2=O)cc1C	11.8%	3.4	0.2	x	-5.7%	0.4
O=C(NC1CCCC1)C(c1cc2c(cc1[N+](=O)[O-])OCO2)N1CCCC1 (configuration not stated)	-5.2%	1.0	-10.5	0.5%	5.3%[15.4 µM]	-0.4
COc1ccc(N/C=C\C(=O)c2ccc(C)cc2)cc1OC	-7.9%	8.5	-6.3	x	17.6%	1.2
CCN1C(=O)N(C)[C@@H](c2ccccc2)C(C(=O)OC)=C1C	11.0%	1.0[11.7 µM]	5.1	0.8%	x	-0.2
CCN1C(=O)[C@H]2[C@@H](c3ccc(C(F)(F)F)cc3)N[C@]3(CCCN(Cc4ccco4)C3=O)[C@H]2C1=O	x	x	-10.8	0.9%	1.0%	0.2
O=C(NCC1CCN(Cc2cccc(F)c2)CC1)c1cc2ccc3cccnc3c2[nH]1	x	x	-13.5	1.7%	x	-0.4
COc1ccc(S(=O)(=O)N2CCCCCC2)cc1N(C)S(=O)(=O)c1ccccc1	-16.1%	4.3	13.7	-2.8%	-9.6%	0.8
CCCCN(C(=O)CSc1n[nH]c(-c2ccc(C)cc2)n1)c1c(N)n(CCCC)c(=O)[nH]c1=O	21.7%	x	3.5	-6.7%	-8.4%[15.4 µM]	-0.1
COc1ccc(-c2ccc3c(c2)C2CC3CCN2CCC#N)cc1 (configuration not stated)	2.1%	x	10.7	0.2%	x	4.7
COc1cc(OC)c(OC)cc1/C=N/NC(=O)c1cc(-c2cccn2C)n[nH]1	4.0%	2.2	-6.0	-0.6%	-52.6%	-0.2
Cc1c(NS(=O)(=O)c2cc(Br)cc3c2N(C(=O)C2CC2)CC3)c(=O)n(-c2ccccc2)n1C	-18.8%	0.3	-16.6	x	-32.8%[15.4 µM]	0.4
Cc1cc(-c2nc3ccccc3c(=O)o2)ccc1[N+](=O)[O-]	-10.2%	-0.6	-5.6	x	3.8%	1.2
Cc1cccnc1NC(=O)C1CCN(S(=O)(=O)c2c(C)noc2/C=C/c2ccco2)CC1	-11.5%	-1.9	-14.9	-1.1%	-9.7%	0.0
COc1ccc(NC(=O)Nc2c(O)ccc3ccccc23)cc1	1.0%	x	-1.2	u	23.1%	-0.3
CC1(C)CC(=O)c2c(n(-c3cccc4ccccc34)ccc2=O)C1	2.9%	4.9	44.4	-6.6%	25.0%	-0.4
Cc1ccc(N(CC(=O)NCc2ccccc2)S(=O)(=O)c2c(C)noc2C)cc1	14.4%	5.0	1.5	x	u	0.6
COc1ccccc1NC(=O)COC(=O)CCC1CCCC1	-0.5%	x	5.7	-1.1%	4.7%[15.4 µM]	1.0
CCc1ccccc1NC(=O)Cn1c(-c2nonc2N)nc2ccccc21	x	x	4.0	0.2%	x	2.5
CCOc1ccc(N(CC(=O)Nc2cc(Cl)ccc2C)S(C)(=O)=O)cc1	-14.4%	0.1	-20.4	1.1%	7.3%	-0.3
C=Cc1ccc(CN2C(=O)N(c3ccc(C)c(C)c3)S(=O)(=O)c3ccccc32)cc1	x	x	9.4	1.1%	x	2.0
COc1ccc(OC)c(S(=O)(=O)NCCc2sc(-c3ccc(C)cc3)nc2C)c1	x	x	2.2	4.3%	x	3.0
CN(C)C(=S)Nc1nc2ccccc2s1	-2.2%	-1.0	5.3	1.4%	5.3%	4.5
CN1CCN(c2nc3ccccc3nc2C(C#N)C(=O)OC2CCCCC2)CC1 (configuration not stated)	-2.4%	u	9.5	-8.6%	-27.1%	0.2
CN1C(=O)C(CC(=O)Nc2ccc(F)cc2)N(Cc2ccco2)C1=S (configuration not stated)	4.2%	-0.3	u	x	13.2%[15.4 µM]	0.1

Carrying on.
SMILES	gsp antagonist	Menin-MLL FL inh	TRPML1 inh	ClpP mod	gsp agonist	TRPML1 ag
Cc1nn(CC(=O)c2ccccc2Cl)c(C)c1[N+](=O)[O-]	-0.5%	1.2	-15.3	x	16.3%[15.4 µM]	1.9
CCc1ccc[n+](-c2[nH]c(=O)sc2/C=N/N=C(\[O-])CCn2c3ccccc3c3ccccc32)c1	5.7%	-28.0	8.5	0.6%	0.2%[15.4 µM]	-0.1
CC1CCc2c(sc(NC(=O)c3ccccc3C(=O)O)c2C#N)C1 (configuration not stated)	1.5%	0.7	3.3	x	-7.0%[15.4 µM]	1.1
COCCN(CC(=O)Nc1ccccc1)S(=O)(=O)c1ccc(S(=O)(=O)N2CCCC2)cc1	12.6%	-2.1	-14.5	-3.9%	5.8%	-0.3
CCCC[C@@H]1C=C(C(=O)O)[C@H](c2ccc(Cl)cc2)N1S(=O)(=O)c1ccc(C)cc1	-22.7%	x	16.4	-0.7%	x	1.0
CC(C)(C)n1nnnc1C(c1cccc(C#N)c1)N1CCN2CCCC2C1 (configuration not stated)	6.4%	-3.4	33.4	0.4%	15.1%	0.1
CCOc1ccc(NC(=O)Cc2ccc(NC3=NC4CS(=O)(=O)CC4S3)cc2)cc1 (configuration not stated)	7.5%	-0.9	-6.0	1.5%	-1.4%	-0.5
